AID504770 – E. coli YBA685 growth inhibition, screen for V. cholerae RctB inhibitors. E. coli YBA685 rctB-dependent plasmid, OD600 growth, 3 h; active compounds read low. z-score (concentration not given with the values). hit rate 0.27% among 130,000. AID 504770;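 active = z-score under -2 on both plates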;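 note: wells of about 30 µL received 100 nL stock; score is relative to mean and SD of the test wells; the first replicate is given; strong numbers were not always called active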
Ba CapD inh – blocks the Bacillus anthracis CapD enzyme; z-score (concentration not given with the values); AID 492967; purified CapD enzyme, fluorescence intensity read-out; active compounds read low; some hits fall short of the stated cut; hit rate 0.23% among 140,000;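 active = z-score under -4 in either of two replicates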;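 note: stock transfer was 100 nL into about 40 µL; score is relative to mean and spread of the plate; one replicate is shown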
Starred values were filed as active, the others as inactive; . = no result given; & = joins results of further samples.

Second line of a record – AID504770 | Ba CapD inh
1	O=C(O)c1cccnc1SCc1cccnc1
  . | -0.075
2	Cc1onc(-c2ccccc2)c1C(=O)c1ccccc1
  2.9 | 0.255
3	CCN(CC(=O)NCc1ccc(Cl)cc1)Cc1nnc(-c2ccc(F)cc2)o1
  -0.15 | .
4	CCC(=O)N1N=C(c2c(-c3ccccc3)c3cc(Cl)ccc3[nH]c2=O)CC1c1ccccc1OC (centres undefined)
  . | -0.58
5	c1ccc(NC2CCCCC2)nc1
  0.2 | 28.2
6	O=C(Nc1nc(-c2ccc(F)cc2)cn1/N=C/c1ccc(Cl)cc1Cl)c1ccc(Cl)cc1
  . | -0.285
7	Cc1ccc(-n2c(O)c(/C=N/c3ccccn3)c3ccccc3c2=O)cc1C
  0.65 | -0.33
8	O=C(CCn1c(=O)c2cccn2c2cccnc21)N1CCCC1
  2.15 | 27.2
9	N#Cc1cccnc1NNC(=O)Nc1ccc(OCc2ccccc2)cc1
  0.35 | 0.44
10	C=CCn1c(CC(C)C)nnc1SCC(=O)Nc1ccc(OC)cc1
  2.4 | -0.35
11	Nc1ccccc1SC(C(=O)Nc1cc(C(F)(F)F)cc(C(F)(F)F)c1)c1ccccc1 (centres undefined)
  . | -0.265
12	CN(C)S(=O)(=O)n1cc(/C=C(\NC(=O)c2ccccc2F)C(=O)NCc2ccco2)c2ccccc21
  1.15 | -0.205
13	O=c1c2ccccc2cnn1CCc1ccccc1
  . | -0.035
14	CC(=O)Nc1ccc2c(COC(=O)c3ccc(-n4cnnn4)cc3)cc(=O)oc2c1
  0 | .
15	CN1CCC(N(C)C(=O)CNC(=O)c2ccc(C(C)(C)C)cc2)CC1
  0.1 | .
16	N#Cc1c(-n2cccc2/C=N/NC(N)=S)sc2c1CCCC2
  -0.45 | -0.53
17	CC1(C)CC(=O)C(C=NCCN2CCN(C(=O)Cc3ccc(Cl)cc3)CC2)=C(O)C1
  0.85 | 0.125
18	COc1ccc(NS(=O)(=O)c2ccc(OCC(F)(F)F)c(C#N)c2OCC(F)(F)F)cc1
  -0.3 | 0.13
19	NC(=O)c1cc(-c2ccccc2)sc1NC(=O)c1ccco1
  -0.85 | 0.57
20	CC1C=CCC2C(=O)N(c3cccc(C(=O)OCC(=O)c4ccc(Br)cc4)c3)C(=O)C12 (centres undefined)
  . | 0.38

A few values from the results shown:
Ba CapD inh with cpd 4 : -0.58
AID504770 with cpd 8 : 2.15
AID504770 with cpd 18 : -0.3

Exported with each value named: entries from further up.
11. Nc1ccccc1SC(C(=O)Nc1cc(C(F)(F)F)cc(C(F)(F)F)c1)c1ccccc1 (centres undefined)
  AID504770 = .
  Ba CapD inh = -0.265
12. CN(C)S(=O)(=O)n1cc(/C=C(\NC(=O)c2ccccc2F)C(=O)NCc2ccco2)c2ccccc21
  AID504770 = 1.15
  Ba CapD inh = -0.205
13. O=c1c2ccccc2cnn1CCc1ccccc1
  AID504770 = .
  Ba CapD inh = -0.035
14. CC(=O)Nc1ccc2c(COC(=O)c3ccc(-n4cnnn4)cc3)cc(=O)oc2c1
  AID504770 = 0
  Ba CapD inh = .

Following part.
Second line of a record – AID504770 | Ba CapD inh
21	CCn1c(N2CCN(S(C)(=O)=O)CC2)nc2ccccc21
  -1.9 | .
22	O=C1OC2(C(=O)c3ccccc3C2=O)/C(=C(\O)c2ccc(Br)cc2)C1=O
  1.2 | -2.19
23	COc1cc(/C=N/NC(=O)c2cc3ccccc3s2)cc(Br)c1OC
  . | 4.83
24	CN(C(=O)Cc1c[nH]c2ccccc12)C(C(=O)Nc1ccc2c(c1)OCO2)c1ccccc1 (centres undefined)
  1.8 | 0.005
25	Cc1cc(=O)[nH]c2c1c(=O)[nH]n2C1CCCCC1
  -0.5 | -0.165
26	CC(=O)Nc1ccc(NC2SC(=O)NC2=O)cc1 (centres undefined)
  1.3 | 0.15
27	CCOC(=O)C1=C(C)NC2=C(C(=O)C(C(=O)OCC)C(c3ccc(OC)cc3)C2)C1c1ccc([N+](=O)[O-])cc1 (centres undefined)
  . | -0.365
28	COc1ccc(S(=O)(=O)N2CC3c4ccccc4CCN3C2c2ccccc2)c2cccnc12 (centres undefined)
  . | 10.5
29	CCOc1ccc(-n2c(SCC)nc3c(c2=O)SCC3)cc1
  0.2 | .
30	CC(NC(=O)c1cccs1)C12CC3CC(CC(C3)C1)C2 (centres undefined)
  1.25 | 0.05
31	CC(=O)N1c2ccccc2N(Cc2ccc(C)cc2C)C(=O)C1(C)C
  -0.85 | 0.01
32	Cc1cc(Br)ccc1NC(=O)CN1CCOCC1
  -1.25 | -0.555
33	CCc1cc(C(c2ccc(Cl)cc2)N2CCN(CCO)CC2)c(NC(=O)c2ccccc2)s1 (centres undefined)
  0.2 | -0.465
34	NC(=O)CN1C(=O)c2ccccc2C1=O
  -0.4 | .
35	CCOC(=O)C1=C(C)NC(C)=C(C(=O)OCC)C1C(=O)OC(C)C(=O)Nc1ccc(S(=O)(=O)N2CCCC2)cc1 (centres undefined)
  -0.45 | .
36	CN1CCc2c(OCc3ccc(Cl)cc3)cccc2C1=O
  -0.4 | .
37	CCCCOc1ccc(C(C)(C#N)CC#N)cc1 (centres undefined)
  -0.15 | 0.08
38	COc1cc(NC(=O)CSc2nc3[nH]ncc3c(=O)n2-c2cccc3ccccc23)cc(OC)c1OC
  . | 0.385
39	CCCCn1c(SCC(=O)N(CC)C2CCS(=O)(=O)C2)nnc1C(CC)N(C)C (centres undefined)
  -0.95 | .
40	COc1c(Cl)cc(CO)cc1Cl
  -0.85 | 0.06
41	CC(=O)NS(=O)(=O)c1ccc(NC(=O)c2ccc(C)c(C)c2)cc1
  -0.7 | .
42	c1cncc(Oc2nc(CN3CCOCC3)nc3sc4c(c23)CCC4)c1
  0.75 | .
43	CN(C)c1cccc(C(=O)NN)c1
  -1.15 | .
44	CC(SC1=N/C(=C\c2ccco2)C(=O)N1c1ccc(OC(F)F)cc1)C(=O)NCc1ccc2c(c1)OCO2 (centres undefined)
  1.85 | .
45	Cc1cccc(N2CCN(CN3C(=O)C4(OCCCO4)c4ccccc43)CC2C)c1 (centres undefined)
  -0.15 | 0.675
46	C=CCNc1sc(C)nc1C(N)=O
  0 | -0.07
47	CCOC(=O)c1cnn(-c2ccc(NC(=O)C(F)(F)F)cc2)c1C(F)(F)F
  -0.2 | -0.795
48	CN1C(=O)NC2NC(=O)N(C)C21 (centres undefined)
  -0.55 | 0.255
49	CCCCn1ccnc1C(=O)c1ccc(S(=O)(=O)N2CCCC2)cc1
  -0.25 | .
50	CN(C)CCOC(c1ccc(Cl)cc1)c1ccccn1 (centres undefined)
  0.05 | -0.18&-0.135
51	Ic1ccc2c(-c3ccccc3)onc2c1
  -0.65 | -0.32
52	Cc1[nH]c2c(NS(=O)(=O)c3ccc4oc(=O)ccc4c3)cccc2c1C
  . | -0.76
53	CN(C)Cc1c(O)ccc2c(=O)c(Oc3ccc4ccccc4c3)c(C(F)(F)F)oc12
  . | -0.195
54	COc1cnc(-c2cccnc2)nc1-c1ccc(C(F)(F)F)cc1
  . | -0.54
55	COc1ccc2[nH]c(C)c(CCNS(=O)(=O)c3c(C)[nH]c(=O)[nH]c3=O)c2c1
  -0.5 | -0.26
56	CCOCc1c(C(=O)N(CC)Cc2ccc3c(c2)OCCO3)oc2ccccc12
  0.95 | .
57	O=C(CCCOc1ccccc1)Nc1nncs1
  -1.35 | -0.09
58	O=C(CCn1c(SCc2cccc(F)c2)nc2ccccc2c1=O)NCCc1ccccc1
  -0.6 | 0.715
59	Cc1cc(C)c2c(NS(=O)(=O)c3ccc(Cl)cc3)n[nH]c2n1
  -0.5 | .
60	O=C1CCCc2cc(S(=O)(=O)NCC3CCC(C(=O)N4CCCCCC4)CC3)ccc2N1 (centres undefined)
  1.65 | -0.415
61	O=C(CCn1nc(-c2ccccc2)c2ccccc2c1=O)Nc1cccnc1
  1.15 | .
62	Cn1cc(C(=O)Nc2cccnc2)c2ccccc2c1=O
  0.3 | 0.66
63	Nc1ccc(-c2ccccc2)cc1
  -0.4 | .
64	COC(=O)c1sccc1NC(=O)C1CCCS1 (centres undefined)
  -0.45 | 9.48
65	O=C(O)CCS(=O)(=O)c1ccc(Br)cc1
  0.55 | -0.315
66	C=CCN1C(=O)/C(=N\N=C\c2ccc(C)s2)c2ccccc21
  -0.55 | .
67	CC1(C)CC(=O)C(C(c2ccccn2)c2c[nH]c3ccccc23)=C(O)C1 (centres undefined)
  -0.4 | 0.01
68	COC(=O)Nc1scc2c1c(=O)oc1ccccc12
  -0.35 | 0.46
69	Cc1ccc(-n2nc3c(c2NC(=O)c2ccccc2)CSC3)cc1
  0.85 | .
70	O=C(/C=C/c1ccc(F)cc1)NC1=NCCS1
  0.05 | .

In a second layout: entries from further up
No.	canonical_smiles	AID504770	Ba CapD inh
64	COC(=O)c1sccc1NC(=O)C1CCCS1 (centres undefined)	-0.45	9.48
65	O=C(O)CCS(=O)(=O)c1ccc(Br)cc1	0.55	-0.315

Remaining list, next part:
Second line of a record – AID504770 | Ba CapD inh
71	CCC(Oc1ccccc1)c1nc2ccccc2n1CC (centres undefined)
  -0.9 | -0.23
72	CCN(CC)S(=O)(=O)c1ccc(/C=C/C(=O)Nc2ccc(F)cc2F)cc1
  -0.2 | 0.2
73	c1ccc(C(CCNCc2cccs2)c2ccco2)cc1 (centres undefined)
  -0.7 | 0.185
74	OC1CCOc2ccccc21 (centres undefined)
  -0.3 | 0.27
75	CCN1C[C@]2(COC)CC[C@H](O)[C@@]34C5C[C@@H]6[C@@H](OC)C[C@@](O)(C5[C@H]6OC)[C@@](O)([C@@H](OC)C23)[C@@H]14 (some centres undefined)
  0 | 0.12
76	Cc1ccc2c(c1)-c1c(cnn1CC(=O)N(CCN(C)C)Cc1ccco1)CO2
  -0.9 | -0.385
77	Cc1ccc(Cl)cc1NC(=O)C1=NCCN1
  0.05 | .
78	Cn1c(=O)[nH]c(=O)c2c1nc(NCCN1CCOCC1)n2CC(O)c1ccccc1 (centres undefined)
  -0.9 | .
79	O=C(CN1C(=O)CC(c2ccccc2)Sc2ccccc21)NC1CCCCC1 (centres undefined)
  -1.35 | -0.405
80	Oc1cccc(Nc2nc3ccc(Cl)cc3n3cnnc23)c1
  -1.3 | 0.35
81	CCCCN1C(=O)C(O)(CC(=O)c2ccco2)c2cc(Br)ccc21 (centres undefined)
  -0.05 | 0.015
82	O=C(NCc1ccccc1)N1CCn2cccc2C1c1ccccc1 (centres undefined)
  -0.5 | .
83	CCC1Sc2ccccc2N(CC(=O)NC2CC2)C1=O (centres undefined)
  -0.65 | 44.6
84	CC(C)c1cc(=O)n2[nH]c(N)nc2n1
  0.75 | 0.325
85	COc1cccc(Nc2cc(C)c3ccccc3n2)c1
  -1.15 | -0.625
86	N#C/C=C/C(=C\Nc1ccc(C(F)(F)F)cc1)S(=O)(=O)c1ccccc1
  . | -0.815
87	COc1ccc(C2=NC(CO)(CO)CO2)cc1
  0.1 | .
88	S=c1nn[nH]n1C1CCCCCCC1
  0.1 | .
89	O=C(NCc1ccccc1)c1ccccc1NS(=O)(=O)c1ccc(F)cc1
  -1 | 1.67
90	O=C(Cc1ccc([N+](=O)[O-])cc1)N1N=C(c2ccc(Br)cc2)CC1(O)C(F)(F)F (centres undefined)
  . | -0.4
91	Cc1ccccc1S(=O)(=O)Nc1cc(Br)c2oc3c(c2c1)C(=O)CCC3
  . | 0.06
92	CC(C)Cn1cnc2c1c(=O)n(CC(=O)NCc1ccc(F)cc1)c(=O)n2CC(C)C
  1.4 | .
93	CCOC(=O)C1CCCn2c1nc1sc3c(c1c2=O)CCCC3 (centres undefined)
  1.05 | 0.35
94	O=c1[nH]ncc(N/N=C\C2CC=CCC2)c1Cl (centres undefined)
  -0.25 | 0.01
95	COc1ccc(OC)c(N=c2ssc3c2-c2cc(C)c(C)cc2NC3(C)C)c1
  . | -1.32
96	COc1ccc2c(c1)c(CC(=O)OCC(=O)N1CCOCC1)c(C)n2C(=O)c1ccc(Cl)cc1
  0.95 | 0.41
97	COc1ccccc1N(NC(=O)C(O)(c1cccc(C(F)(F)F)c1)c1cccc(C(F)(F)F)c1)C(=O)CCl
  . | -0.14
98	COc1ccc(COCC(O)CNC2Cc3ccccc3C2)cc1 (centres undefined)
  0.5 | 1.9
99	O=C(CSc1nnc(NC(=O)C23CC4CC(CC(C4)C2)C3)s1)Nc1nccs1
  -0.5 | .
100	CCOC(=O)C1CCN(S(=O)(=O)c2nc3nc(C)cc(C)n3n2)CC1
  1.4 | 0.1
101	Cc1ccc2oc(=O)n(CCc3noc(-c4cccs4)n3)c2c1
  0.15 | -1.23
102	CC(COC(=O)NNC(=O)c1ccccc1NC(=O)c1c(F)cccc1F)c1ccccc1 (centres undefined)
  . | 1.43
103	O=C1OC(c2ccccc2Cl)Sc2ccccc21 (centres undefined)
  0.7 | 0.01
104	Cc1ccc(NC(=O)/C(=C\c2ccc3c(c2)OCO3)NC(=O)c2ccccc2Br)cc1
  . | -0.085
105	CC(=O)NCc1ccc(C(=O)CSc2nc3c(Cl)cc(Cl)cc3[nH]2)o1
  -1 | .
106	CNCc1n[nH]c2c1CCCC2
  -1.1 | .
107	CCOC(=O)C(C)OC(=O)C1=C(C)NC(=O)NC1c1cc(OC)c(OC)c(OC)c1 (centres undefined)
  . | -0.16
108	C[N+]1(CC(O)c2ccccc2)CCCCCC1 (centres undefined)
  -1.9 | -0.47
109	CC1CCCCN1C(=O)Cc1coc2ccc3ccccc3c12 (centres undefined)
  0.15 | .
110	Cc1c(N=Cc2cccc(OCc3ccccc3)c2)c(=O)n(-c2ccccc2)n1C
  . | 0.07
111	CC(NC(=O)CSc1n[nH]c(=O)n1C1CC1)C12CC3CC(CC(C3)C1)C2 (centres undefined)
  -0.1 | .
112	COc1ccc(Cc2nnc(Nc3c(C)cccc3C)o2)cc1OC
  -0.2 | 0.17
113	Cn1c(=S)sc2ccccc21
  -0.8 | 23.9
114	O=S(=O)(NC1CC1)c1ccc(S(=O)(=O)N(Cc2ccccn2)C2CC2)cc1
  -0.75 | .
115	CC(C)(C)c1ccc(CCCNCCN2CCNCC2)cc1
  -0.35 | .
116	COC(=O)c1ccc(C(=O)OC)c(S(=O)(=O)N(C)Cc2ccco2)c1
  -0.2 | .

High-throughput results from PubChem.
